Assay outcomes: PubChem BioAssay, several laboratories
Rce1 inhib: inhibitors of yeast Ras-converting enzyme. Q03530. yeast membranes, quenched prenylated peptide cleavage fluorescence. calls only. actives 0.27% (n = 290,000). AID 2563;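 active = fall in fluorescence gain of 50% or more versus controls, with final raw signal at or below 3038400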;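 note: plate controls were neutral control wells for no effect and wells lacking membranes for full effect; tested at 10 µM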
Target sequence (Q03530 whole entry, looked up): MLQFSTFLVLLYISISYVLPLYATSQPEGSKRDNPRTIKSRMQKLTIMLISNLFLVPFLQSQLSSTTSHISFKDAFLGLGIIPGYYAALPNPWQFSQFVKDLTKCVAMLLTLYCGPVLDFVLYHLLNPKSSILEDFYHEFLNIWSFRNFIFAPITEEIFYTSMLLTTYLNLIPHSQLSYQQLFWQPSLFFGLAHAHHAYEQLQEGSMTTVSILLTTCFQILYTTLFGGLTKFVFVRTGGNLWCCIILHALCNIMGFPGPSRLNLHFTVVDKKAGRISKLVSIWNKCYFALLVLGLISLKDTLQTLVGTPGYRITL
MT1-MMP act inh: inhibitors of human MT1-MMP activation; HT1080 RFP-PRO-GFP cells, GFP/RFP ratio fluorescence, overnight; percent of plate control window, DMSO zero; GFP/RFP ratio change, % at 20 µM; actives 0.061% (n = 360,000); AID 651647;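 active = GFP/RFP ratio change of at least 30% with cell ATP level not reduced by more than half and red fluorescence within 50% of control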; note: strong numbers were not always called active
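Assay system: HT1080 RFP-PRO-GFP cells | Dosing: 20 µM single dose, 1% DMSO | Incubation: Cells overnight before dosing, compound overnight, 37 °C, 5% CO2 | Evaluation: GFP/RFP fluorescence ratio | Control set: DMSO-only wells and HT1080 RFP-L50D-GFP cell wells as references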
PABP FP inh: PABP-poly(A) binding inhibition; inhibition, % at 35 µM; P11940; actives 1% (n = 290,000); AID 2014; PABP-poly(A) RNA binding, fluorescence polarization;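 active = 50% or more with normal probe brightness, or confirmed in later tests; about a fifth of its hits are not listed in these tables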;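 note: calls also rest on retests at 20 µM and on dose response follow-up; controls were probe without protein and protein plus probe with vehicle; some compounds called inactive have numbers as strong as hits; many hits fall short of the cut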
Target sequence (P11940 whole entry, looked up): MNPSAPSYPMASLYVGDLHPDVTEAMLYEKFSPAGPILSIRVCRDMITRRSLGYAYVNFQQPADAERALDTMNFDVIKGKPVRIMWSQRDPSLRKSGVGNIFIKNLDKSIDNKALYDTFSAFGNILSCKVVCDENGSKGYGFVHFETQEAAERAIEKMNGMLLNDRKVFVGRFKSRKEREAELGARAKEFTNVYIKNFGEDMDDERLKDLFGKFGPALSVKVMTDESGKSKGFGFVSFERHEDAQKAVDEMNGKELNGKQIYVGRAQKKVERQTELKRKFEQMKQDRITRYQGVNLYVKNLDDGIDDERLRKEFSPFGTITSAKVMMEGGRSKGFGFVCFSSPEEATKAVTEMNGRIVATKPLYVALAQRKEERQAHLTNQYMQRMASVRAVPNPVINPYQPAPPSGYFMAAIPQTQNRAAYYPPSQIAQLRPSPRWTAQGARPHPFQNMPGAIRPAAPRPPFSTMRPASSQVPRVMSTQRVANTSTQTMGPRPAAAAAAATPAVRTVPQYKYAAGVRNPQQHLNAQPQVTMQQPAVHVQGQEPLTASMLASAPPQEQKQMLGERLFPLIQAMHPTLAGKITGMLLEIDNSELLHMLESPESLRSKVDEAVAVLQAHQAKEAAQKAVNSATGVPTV
Yeast UUG start: yeast start codon fidelity modulation | S. cerevisiae UUG-firefly luciferase reporter, luminescence/redox ratio | activity score, % at 18.7 µM | actives 0.13% (n = 350,000) | AID 602363;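 active = replicate mean at a twofold rise or more, about +100% in these data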;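 note: firefly luciferase made from a UUG start codon reports start codon fidelity; reporter light over untreated wells divided by growth signal over untreated wells; some hits fall short of that in this replicate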
HIV Env fusion: blocks HIV Env-driven cell-cell fusion | AID 651610 | inhibition, % at 12.3 µM | HeLa-JRFL Env/CEM21 cell fusion, luciferase | actives 1.1% (n = 360,000);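 active = mean replicate inhibition score of at least 50 and every replicate individually at or above 50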;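 note: 0% = plate neutral controls and 100% = maraviroc near 300 nM; one replicate is shown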
CSC inhib: cancer stem cell inhibition; cancer stem cell-like cells viability, luminescence; inhibition, % at 7.5 µM; actives 1.1% (n = 300,000);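 active = mean at 75% or more and at least half the replicates too; tested in HMLE shEcad cells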;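 note: 0% = median of negative and 100% = median of positive control wells; the first replicate is given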
eIF4H FP inh: inhibitors of RNA binding by human eIF4H | Q15056 | eIF4H fluorescence polarization binding assay | actives 0.94% (n = 290,000) | AID 2012 | inhibition, % at 35 µM;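 active = 50% or more with normal probe brightness, or confirmed in later tests; about a fifth of its hits are not listed in these tables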;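 note: calls also rest on retests at 20 µM and on dose response follow-up; 0% = protein and probe with vehicle and 100% = probe without protein; strong numbers were not always called active; many hits fall short of the cut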
MT1-MMP act inh RFP: recorded beside MT1-MMP act inh, whose call it bears; RFP signal change, %; measured here: RFP expression control read;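 0 = vehicle wells; hits needed this value within 50% of zero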
Starred values were filed as active, the others as inactive. Some of the compounds tested. The share of hits here may be higher or lower than overall.

COc1cccc(CN2CCNC(=O)C2CC(=O)NCCc2cccc(C)n2)c1OC (stereo not given) was read as Rce1 inhib inactive, MT1-MMP act inh -3, PABP FP inh 0, HIV Env fusion 2, CSC inhib -12, eIF4H FP inh 22 and MT1-MMP act inh RFP 1.
For Cc1ccc2c(c1)[nH]c1c(N3CCN(Cc4ccccc4)CC3)ncnc12 the results were MT1-MMP act inh 16, PABP FP inh 15, Yeast UUG start -12, HIV Env fusion 63*, CSC inhib 13, eIF4H FP inh 4 and MT1-MMP act inh RFP -19.
Cc1[nH]c2ccccc2c1CN1CCC(Cc2ccccc2)CC1 was read as Rce1 inhib inactive, MT1-MMP act inh -8, PABP FP inh 2, Yeast UUG start 12, HIV Env fusion 3, CSC inhib 63, eIF4H FP inh 11 and MT1-MMP act inh RFP -10.
`Cn1c(N)c(C(=O)COC(=O)c2ncc(Cl)c(Cl)c2Cl)c(=O)n(C)c1=O` gave Rce1 inhib inactive, MT1-MMP act inh 0, PABP FP inh 8, HIV Env fusion -5, CSC inhib -14, eIF4H FP inh -4 and MT1-MMP act inh RFP 0.
For COc1cccc(NC(=O)NCc2ccccc2F)c1 the results were MT1-MMP act inh 3, PABP FP inh -6, HIV Env fusion 15, CSC inhib 9, eIF4H FP inh -1 and MT1-MMP act inh RFP 4.
CCOc1cc(/C=N/Nc2cc(C)nc(-n3nc(C)cc3C)n2)ccc1O was read as Rce1 inhib inactive, MT1-MMP act inh 13, PABP FP inh -4, Yeast UUG start -25, HIV Env fusion -3, CSC inhib 25, eIF4H FP inh 4 and MT1-MMP act inh RFP -6.
`CCOC(=O)c1cnc2c(C#N)c(C)nn2c1-c1ccccc1` gave Rce1 inhib inactive, MT1-MMP act inh -2, PABP FP inh 14, Yeast UUG start 7, HIV Env fusion -47, CSC inhib 2, eIF4H FP inh -7 and MT1-MMP act inh RFP 4.
For O=C1CCC(=O)c2oc3ccccc3c2N1 the results were Rce1 inhib inactive, MT1-MMP act inh 0, PABP FP inh -4, Yeast UUG start -7, CSC inhib -4, eIF4H FP inh -4 and MT1-MMP act inh RFP -2.
Screening COc1ccc(N(CC(O)Cn2c(C)nc3ccccc32)S(=O)(=O)c2ccc(C)cc2)cc1 (stereo not given) returned Rce1 inhib inactive, MT1-MMP act inh 2, PABP FP inh -9, HIV Env fusion -2, CSC inhib 6, eIF4H FP inh 3 and MT1-MMP act inh RFP -5.
Screening O=C(NCCC1=CCCCC1)C(=O)NCC(c1ccco1)N1CCN(c2ccc(F)cc2)CC1 (stereo not given) returned Rce1 inhib inactive, MT1-MMP act inh 3, PABP FP inh 4, Yeast UUG start -10, CSC inhib 4, eIF4H FP inh -1 and MT1-MMP act inh RFP -2.
Cc1ccc(C)n1CCN1CCN(C(=O)CSc2nc3ccccc3nc2N2CCOCC2)CC1 was read as Rce1 inhib inactive, MT1-MMP act inh 0, PABP FP inh -13, CSC inhib 35, eIF4H FP inh -9 and MT1-MMP act inh RFP 4.
CCNc1nc(NCC)n2c(SCC(=O)Nc3ccc(CC)cc3)nnc2n1 was read as Rce1 inhib inactive, MT1-MMP act inh -1, Yeast UUG start -21, CSC inhib 3 and MT1-MMP act inh RFP -8.
`CCCCC(=O)Nc1ccc(NC(=O)c2ccc([N+](=O)[O-])cc2Cl)cc1OC` gave Rce1 inhib inactive, MT1-MMP act inh 1, PABP FP inh 0, HIV Env fusion -7, CSC inhib 8, eIF4H FP inh -6 and MT1-MMP act inh RFP -2.
`c1ccc2[nH]c(-c3cnco3)cc2c1` gave Rce1 inhib inactive, MT1-MMP act inh -3, PABP FP inh 0, Yeast UUG start -6, HIV Env fusion 7, CSC inhib -2, eIF4H FP inh 5 and MT1-MMP act inh RFP 4.
Screening O=C(CC1NCCNC1=O)OCCCc1ccccc1 (stereo not given) returned Rce1 inhib inactive, MT1-MMP act inh -3, PABP FP inh 0, Yeast UUG start -14, HIV Env fusion 10, CSC inhib -12, eIF4H FP inh -10 and MT1-MMP act inh RFP 0.
Screening COc1ccc(CCNS(=O)(=O)c2ccc(-n3cnnn3)cc2)cc1OC returned Rce1 inhib inactive, MT1-MMP act inh -1, PABP FP inh 9, Yeast UUG start -13, HIV Env fusion 16, CSC inhib -6, eIF4H FP inh 2 and MT1-MMP act inh RFP -1.
CC1=C(C(=O)Nc2ccccc2)C(c2ccncc2)C(C#N)=C(SCC(=O)NC2CC2)N1 (stereo not given) was read as Rce1 inhib inactive, MT1-MMP act inh 0, PABP FP inh 3, CSC inhib -9, eIF4H FP inh -3 and MT1-MMP act inh RFP -3.
Cc1ccc(C(=O)c2ccc(N3CCN(C)CC3)c([N+](=O)[O-])c2)cc1 was read as Rce1 inhib inactive, MT1-MMP act inh -1, PABP FP inh -2, HIV Env fusion -1, eIF4H FP inh -2 and MT1-MMP act inh RFP -8.
`CN(C)C(=O)CSc1nc(SCC(=O)N(C)C)n(-c2ccccc2)n1` gave Rce1 inhib inactive, MT1-MMP act inh 0, PABP FP inh -8, Yeast UUG start -18, CSC inhib -11, eIF4H FP inh -2 and MT1-MMP act inh RFP 1.
COc1ccc(Cn2nnnc2C(c2ccc3ncccc3c2)N2CCN(C3CCCCC3)CC2)cc1 (stereo not given) was read as Rce1 inhib inactive, MT1-MMP act inh 1, PABP FP inh -8, HIV Env fusion -21, CSC inhib -8, eIF4H FP inh 11 and MT1-MMP act inh RFP 3.

5 compounds picked at random from the list so far:
Cc1[nH]c2ccccc2c1CN1CCC(Cc2ccccc2)CC1 was read as Rce1 inhib inactive, MT1-MMP act inh -8, PABP FP inh 2, Yeast UUG start 12, HIV Env fusion 3, CSC inhib 63, eIF4H FP inh 11 and MT1-MMP act inh RFP -10.
For O=C1CCC(=O)c2oc3ccccc3c2N1 the results were Rce1 inhib inactive, MT1-MMP act inh 0, PABP FP inh -4, Yeast UUG start -7, CSC inhib -4, eIF4H FP inh -4 and MT1-MMP act inh RFP -2.
Screening O=C(NCCC1=CCCCC1)C(=O)NCC(c1ccco1)N1CCN(c2ccc(F)cc2)CC1 (stereo not given) returned Rce1 inhib inactive, MT1-MMP act inh 3, PABP FP inh 4, Yeast UUG start -10, CSC inhib 4, eIF4H FP inh -1 and MT1-MMP act inh RFP -2.
`CCOC(=O)c1cnc2c(C#N)c(C)nn2c1-c1ccccc1` gave Rce1 inhib inactive, MT1-MMP act inh -2, PABP FP inh 14, Yeast UUG start 7, HIV Env fusion -47, CSC inhib 2, eIF4H FP inh -7 and MT1-MMP act inh RFP 4.
COc1ccc(Cn2nnnc2C(c2ccc3ncccc3c2)N2CCN(C3CCCCC3)CC2)cc1 (stereo not given) was read as Rce1 inhib inactive, MT1-MMP act inh 1, PABP FP inh -8, HIV Env fusion -21, CSC inhib -8, eIF4H FP inh 11 and MT1-MMP act inh RFP 3.

The list goes on.
Screening CCOc1ccc(CN(C)C(=O)CCN2C(=O)c3ccccc3C2=O)cc1OC returned MT1-MMP act inh 0, PABP FP inh 0, Yeast UUG start -5, HIV Env fusion 14, CSC inhib 6, eIF4H FP inh 6 and MT1-MMP act inh RFP -2.
`COc1cc(CCC(=O)OCC(=O)Nc2nc(C)c(Cl)cc2Cl)cc(OC)c1OC` gave Rce1 inhib inactive, MT1-MMP act inh 0, PABP FP inh -9, Yeast UUG start -15, HIV Env fusion -37, CSC inhib -2, eIF4H FP inh -12 and MT1-MMP act inh RFP 0.
`CCOC(=O)c1cnc(Cc2ccccc2)[nH]c1=O` gave Rce1 inhib inactive, MT1-MMP act inh 1, PABP FP inh 6, Yeast UUG start -11, HIV Env fusion 0, CSC inhib 3, eIF4H FP inh 0 and MT1-MMP act inh RFP -1.
Screening C/C(=N\NC(=S)NC(C)C)c1ccc(C(C)(C)C)cc1 returned Rce1 inhib inactive, MT1-MMP act inh -1, PABP FP inh -7, Yeast UUG start -35, HIV Env fusion 17, CSC inhib 78*, eIF4H FP inh 4 and MT1-MMP act inh RFP -4.
`C/C(=N/NC(=O)C1COc2ccccc2O1)c1ccc(Br)s1` (stereo not given) gave Rce1 inhib inactive, MT1-MMP act inh 5, PABP FP inh -1, Yeast UUG start -19, HIV Env fusion -6, CSC inhib -1, eIF4H FP inh -13 and MT1-MMP act inh RFP -3.
Screening O=C(CCn1nc(-c2ccc(Cl)cc2)ccc1=O)NCCCN1CCCCCC1 returned Rce1 inhib inactive, MT1-MMP act inh 1, PABP FP inh -6, Yeast UUG start 5, CSC inhib 0, eIF4H FP inh -3 and MT1-MMP act inh RFP 10.
For Cc1cc(NC(=O)c2ccco2)sc1C the results were MT1-MMP act inh 3, Yeast UUG start 1, HIV Env fusion -67, CSC inhib 10 and MT1-MMP act inh RFP 1.
CC(C)N(CCCNC(=O)c1nn(C)c2c1CS(=O)(=O)c1ccccc1-2)Cc1ccccc1 was read as Rce1 inhib inactive, MT1-MMP act inh 2, Yeast UUG start -18, HIV Env fusion -6, CSC inhib -13 and MT1-MMP act inh RFP -3.
`C[N+](C)(CCOc1ccccc1)Cc1ccccc1` (tested in a mixture with another compound) gave Rce1 inhib inactive, MT1-MMP act inh -1, PABP FP inh 12, Yeast UUG start -14, HIV Env fusion -7, CSC inhib -7, eIF4H FP inh 11 and MT1-MMP act inh RFP 1.
For CC(C)(C)c1ccccc1NC(=O)Nc1nc(C(N)c2ccccc2Cl)cs1 (stereo not given) the results were MT1-MMP act inh -6, Yeast UUG start 0, HIV Env fusion -45 and MT1-MMP act inh RFP -4.
For O=C(Cn1c(=O)n(Cc2ccco2)c(=O)c2ccccc21)Nc1cccc(Cl)c1 the results were Rce1 inhib inactive, MT1-MMP act inh 1, PABP FP inh 2, Yeast UUG start -12, HIV Env fusion 95*, CSC inhib -9, eIF4H FP inh 5 and MT1-MMP act inh RFP -6.
COC(=O)C1=C(C)NC(C)=C(C(=O)OCC2CCCO2)C1c1cccc(Br)c1 (stereo not given) was read as MT1-MMP act inh -5, PABP FP inh -8, Yeast UUG start 24, HIV Env fusion -5, CSC inhib 10, eIF4H FP inh 9 and MT1-MMP act inh RFP -2.
Screening O=C(NN1C(=O)c2ccccc2NC1c1ccco1)c1ccccc1 (stereo not given) returned Rce1 inhib inactive, MT1-MMP act inh -3, PABP FP inh -9, Yeast UUG start 4, HIV Env fusion -2, CSC inhib -9, eIF4H FP inh -1 and MT1-MMP act inh RFP 1.
`COc1cc(/C=N/N=C2\CC3CCC2(C)C3(C)C)ccc1O` (stereo not given) gave Rce1 inhib inactive, MT1-MMP act inh -1, PABP FP inh -10, Yeast UUG start -15, HIV Env fusion -38, CSC inhib -16, eIF4H FP inh -11 and MT1-MMP act inh RFP 2.
`COc1ccc(CCN(C)C(=O)c2ccc(S(=O)(=O)Nc3ccccc3F)cc2)cc1OC` gave Rce1 inhib inactive, MT1-MMP act inh 2, PABP FP inh -1, Yeast UUG start 10, HIV Env fusion 6, CSC inhib -3, eIF4H FP inh 6 and MT1-MMP act inh RFP 8.
For CCOc1ccc(N2CC(C(=O)NCCC3=CCCCC3)CC2=O)cc1 (stereo not given) the results were Rce1 inhib inactive, MT1-MMP act inh 1, PABP FP inh 13, Yeast UUG start 5, CSC inhib -14, eIF4H FP inh 3 and MT1-MMP act inh RFP -2.
`Cc1cccc(NC(=O)CNC(=O)CCc2nc3sc4c(c3c(=O)[nH]2)CCCC4)c1C` gave Rce1 inhib inactive, MT1-MMP act inh -21, Yeast UUG start -11, HIV Env fusion 3, CSC inhib -11 and MT1-MMP act inh RFP 1.
`COc1ccc([C@@H]2CC=C(C(=O)O)[C@H](c3ccc(C(C)(C)C)cc3)N2S(=O)(=O)c2ccc(C)cc2)cc1OC` gave MT1-MMP act inh 4, Yeast UUG start -23, HIV Env fusion -4 and MT1-MMP act inh RFP 3.
